Screening results deposited in PubChem BioAssay by National Center for Advancing Translational Sciences (NCATS).
StopGo reporter: High Throughput Screening for Foot and Mouth Disease Virus Antivirals; human cells with a luciferase reporter of 2A StopGo recoding; control for the full effect not named in the record; Potency, µM (titrated, usually from 57.9 µM), inactives show at the top dose signal change, negative = less light; 410,000 compounds, 1.2% hits; AID 1159524, 2015; active = well fitted falling curve with a large enough effect; inconclusive = small, poorly fitted or top-dose-only effect; inactive = no such curve, though single readings can be large or run the other way; tested in HEK293T cells; note: nearly all actives have a fitted effect of over 45% in size; luciferase light after 4 h
RE007 growth inh: qHTS Assay for Inhibitors of the HIV-1 protein Vpr; S. pombe RE007 Vpr strain, BacTiter-Glo ATP luminescence, 24 h; control for the full effect not named in the record; Potency, µM (titrated, usually from 92.2 µM), for inactives: top-dose activity change, negative = less growth; 360,000 compounds, 0.21% hits; AID 651644, 2012; active = well fitted falling curve with a large enough effect; inconclusive = small, poorly fitted or top-dose-only effect; inactive = no such curve, though single readings can be large or run the other way;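 note: nearly all actives have a fitted effect of over 50% in size; the assay follows cell death caused by Vpr and the record does not say whether a fall means rescue or toxicity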
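Fission yeast RE007 carrying one integrated HIV-1 vpr copy, seeded at OD 0.01 in PMG+AL medium with 23 nL pinned compound. Grown 24 h at 30 degrees; viability read by BacTiter-Glo luminescence after 5 min.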
* hit, by the source's call; u = inconclusive; [ ] = remark or other dose. % is set by controls: 0 for no effect and ±100 for the full control effect; potency is the fitted concentration of half-maximal effect.

SMILES | StopGo reporter | RE007 growth inh
Cc1ccc(S(=O)(=O)N2C[C@H]3C(=O)C[C@@H](c4ccccc4)N(S(=O)(=O)c4ccc(C)cc4)[C@H]3C[C@H]2c2cccs2)cc1 | -8% | -4%
CCCCCCCCN1C(=O)[C@H](CC(=O)NCCCOCCCC)C[C@@]2(C(=O)OC)CCCCC=C12 | 0% | -6%
O=C(Nc1ccc(F)c(Cl)c1)C1Cc2c(-c3ccc4c(c3)OCO4)ccnc2O1 (stereo not given) | -30% | -21%
CCOC(=O)c1ccc(NC(=O)c2ncn3c2C(=O)NC[C@H]3C)cc1 | u | 7%
Cc1ccc(CNC(=O)c2cccnc2)cc1 | 3% | 16%
COc1ccc(CCNC(=O)c2cccnc2Cl)cc1OC | 4% | 5%
COc1cc2cc(C(=O)NC(C)c3cccc4ccccc34)c(N)nc2cc1OC (stereo not given) | u | -19%
CN(C)c1ccc2c(=O)c3ccccc3oc2n1 | 4% | -21%
CN(CC(=O)Nc1cccc(F)c1)C(=O)c1cccc(S(=O)(=O)N2CCN(Cc3ccccc3)CC2)c1 | -47% | 2%
O=C(NCC1CC1)c1cccs1 | -10% | 7%[18.4 µM]
COc1ccc(OC(=O)N(C)C[C@@H]2OCc3ccccc3-c3c(n(C)c4ccccc34)C(=O)N([C@H](C)CO)C[C@@H]2C)cc1 | -22% | 2%
O=C(COc1ccc(Cl)cc1Cl)NC1CC1 | 0% | 3%
CC1(C(=O)N2Cc3ccccc3C2)CCN1C(=O)C1(c2ccccc2)CC1 (stereo not given) | -10% | 0%[18.4 µM]
CCCCN1C(=O)C(CC(=O)NCCCCc2ccccc2)CC(C(=O)N(C(C)C)C(C)C)=C1C (stereo not given) | -18% | -23%
Cc1cc(Br)ccc1OCc1nnc(-c2ccccc2)o1 | 47%[activator] | u
O=C(COC(=O)c1cc(=O)[nH]c2ccccc12)Nc1nc(-c2ccc(F)cc2)cs1 | -27% | 2%
COc1ccc(OC)c(-c2cc(C(=O)Nc3ccccc3C(N)=O)c3ccccc3n2)c1 | u | -5%
Cn1c(=O)c2cc(NC(=S)NC3CCCCC3)ccc2n1Cc1ccc(Cl)cc1 | -3% | 19%
CN1OC[C@@H]2CN[C@H](c3ccc(-c4ccc(C#N)cc4)cc3)C[C@@H]21 | 25% | -4%
O=[N+]([O-])c1ccc(N2CCCC2)c([N+](=O)[O-])c1 | -16% | -13%
NC(=O)c1ncn([C@@H]2O[C@H](CNCc3cc(Cl)ccc3OCc3ccc(Cl)cc3)[C@@H](O)[C@H]2O)n1 | -5% | 0%
O=C1CC(=O)OC(c2ccc([N+](=O)[O-])cc2)O1 | 10µM* | u
CCCNC(=O)C1(C)CCCN(C(=O)c2ccc(F)c(Cl)c2)C1 (stereo not given) | -7% | 32%[18.4 µM]
CN(CC(=O)C(C(N)=O)c1ccccc1)c1ccccc1 (stereo not given) | -6% | 6%
C[C@H]1CN([C@@H](C)CO)C(=O)c2cc(Br)cnc2O[C@@H]1CN(C)C(=O)c1ccncc1 | -7% | 24%
CCOC1=C2CN(S(=O)(=O)c3ccc(C)cc3)C(c3ccccc3)CC2N(S(=O)(=O)c2ccccc2Cl)C(c2ccccc2)C1 (stereo not given) | -7% | -1%
CCN(CC)c1ncnc2c1ncn2[C@H]1CN(CCOC)C[C@@H](CO)O1 | -28% | 4%
COc1ccc2oc3cc(Cl)ccc3c(=O)c2c1 | 61%[activator] | 1%
CN(CCc1ccccc1)C(=O)c1cccc(NC(=O)Cc2cccc(NC(=O)C3CCCN(S(=O)(=O)c4cccc([N+](=O)[O-])c4)C3)c2)c1 (stereo not given) | u | -15%
O=[N+]([O-])c1ccc(F)c(CN2CCN(c3ncc(Cc4ccccc4)cn3)CC2)c1 | u | -12%
Cc1ccc(Nc2n[nH]c(=S)s2)cc1 | 48%[activator] | -4%
O=C(NCCc1ccccc1)c1ccccc1C(=O)NCCc1ccccc1 | 31%[activator] | -11%
COc1ccccc1Cc1c(-c2cccc(Cl)c2)nc2c(C)cc(Br)cn12 | -27% | -5%
NC(N)=NCCCC(NC(=O)c1ccccc1)C(=O)Nc1ccc2ccccc2c1 (stereo not given) | -14% | -6%[18.4 µM]
CC(C)(C)c1ccc(CC(=O)N2CCC2(C)C(=O)NS(=O)(=O)c2cccc(F)c2)cc1 (stereo not given) | -11% | 7%
CCN(CC)C(=O)C1=C(C)N(Cc2ccc(OC)cc2)C(=O)C(CC(=O)NC2CC2)C1 (stereo not given) | -21% | 14%
CN(CCc1ccccc1)C(=O)c1ccc(NC(=O)Cc2ccc(NC(=O)C3CCN(C(=O)C4CCCC4)CC3)cc2)cc1 | u | 45%
CC(=O)OCCN1c2ccccc2Sc2cnccc21 | -9% | -19%
C=CCOc1ccc(C[C@H](N)C(=O)NC[C@H]2O[C@@H](n3ccc(N)nc3=O)[C@H](O)[C@@H]2O)cc1 | -14% | 0%
COc1ccc(-c2cc(C(=O)NCc3cccc(C(F)(F)F)c3)[nH]n2)c(C)c1 | 18% | -7%

Two of these compounds in a different format.
SMILES	StopGo reporter	RE007 growth inh
NC(N)=NCCCC(NC(=O)c1ccccc1)C(=O)Nc1ccc2ccccc2c1 (stereo not given)	-14%	-6%[18.4 µM]
COc1ccccc1Cc1c(-c2cccc(Cl)c2)nc2c(C)cc(Br)cn12	-27%	-5%

Going on with the list:
SMILES | StopGo reporter | RE007 growth inh
COc1ccc(OC)c(C(O)c2ncc(-c3ccc(C(F)(F)F)cc3)[nH]2)c1 (stereo not given) | -4% | 6%
CCN(CC(=O)Nc1ccc(NC(C)=O)cc1)C(=O)c1ccc(Sc2nncn2C)c([N+](=O)[O-])c1 | -15% | -4%
CN(C(=O)c1ccc(NC(=O)Cc2cccc(NC(=O)C3CCN(C(=O)C4CCC4)CC3)c2)cc1)C1CC1 | 5% | -8%
Cc1ccccc1S(=O)(=O)NC(=O)C1(C)CCN1C(=O)c1cccc2ccccc12 (stereo not given) | -13% | 13%
Cc1cn([C@H]2C[C@H](O)[C@@H](CNCc3ccccc3)O2)c(=O)[nH]c1=O | u | -5%
OC(c1ccccc1)c1nc(-c2cc(F)cc(F)c2)cs1 (stereo not given) | 3% | 32%
CC(C)C(=O)N1CCC1(C)C(=O)NCc1cc(Cl)ccc1F (stereo not given) | -1% | 3%
COc1ccc(-n2nnnc2C(c2ccccc2OC(F)(F)F)N2CCN(C/C=C/c3ccccc3)CC2)cc1 (stereo not given) | -13% | 3%
CCOC(=O)N1CCN(C(=O)C[C@@H]2C[C@@]3(C(=O)OCC)CCC=C3N(Cc3ccco3)C2=O)CC1 | -15% | -19%
OC(c1ccc2c(c1)OCO2)c1ncc(-c2cccc(C(F)(F)F)c2)[nH]1 (stereo not given) | 39%[activator] | -7%[18.4 µM]
CCCCC[C@H](C)N1C[C@H](COCc2ccccc2)Oc2cc(N3CCC[C@H]3CO)ccc2S1(=O)=O | 17% | 2%
CCOC(=O)C1(C)CCCN(C(=O)c2cccnc2)C1 (stereo not given) | -21% | -5%[18.4 µM]
CN(CCc1ccccc1)C(=O)c1ccc(NC(=O)Cc2ccc(NC(=O)C3CCN(S(=O)(=O)c4cccc([N+](=O)[O-])c4)CC3)cc2)cc1 | 0% | 5%
Cc1ccccc1N1CCN(c2ccccc2NC(=O)/C=C\C(=O)O)CC1 | -9% | 6%
F[B-](F)(F)COc1ccccc1 | -3% | -10%
C[C@H]1CN([C@@H](C)CO)C(=O)CCCn2cc(nn2)CO[C@@H]1CN(C)S(=O)(=O)c1ccc(Oc2ccccc2)nc1 | -9% | 4%
Cc1cccc(S(=O)(=O)N(C)C[C@H]2OCc3cnnn3CCCC(=O)N([C@H](C)CO)C[C@@H]2C)c1 | 7% | -4%
C[C@@H]1CN([C@H](C)CO)C(=O)CCCn2cc(nn2)CO[C@H]1CN(C)S(=O)(=O)c1ccc(Oc2ccccc2)cc1 | 0% | 14%
c1cc(C2OCCO2)cs1 | -16% | 2%
Cc1ccccc1-c1ccc2n1Cc1cnnn1-c1ccccc1-2 | 0% | 2%
C#Cc1ccc([C@H]2C=C(C(=O)NCc3ccccc3)O[C@@H](OCc3ccc(CO)cc3)C2)cc1 | -8% | 18%
COC(=O)CCCCC1=CCC2C(=O)C=C(O)C2C1 (stereo not given) | 0% | -10%
CC(=O)Nc1cnc(-c2ccccc2C(C)=O)cn1 | -13% | 21%
CC1=C(C(=O)N2CCOCC2)CC(CC(=O)NC(c2ccccc2)c2ccccc2)C(=O)N1CCCN1CCCC1=O (stereo not given) | -4% | -1%
CCOC(=O)N1CCN(C(=O)C[C@@H]2C[C@@]3(C(=O)OCC)CCCC=C3N(Cc3ccccc3)C2=O)CC1 | -25% | 1%
CC1(C(=O)Nc2cnc3ccccc3c2)CCN1CCOc1ccccc1 (stereo not given) | 7% | -24%
COc1cccc(C(C)(O)c2nc(-c3ccccc3C)cs2)c1 (stereo not given) | u | 10%
CC1(C(=O)NS(=O)(=O)c2cccc(OC(F)F)c2)CCN1C(=O)CC1CCCC1 (stereo not given) | -8% | -6%[18.4 µM]
CN1C[C@H]2CON(C)[C@H]2C[C@H]1c1cccc(-c2ccccc2)c1 | -10% | -24%
O=C1C=CC(O)C2(CO)OC12 (stereo not given) | 28µM* | 9%
COC(=O)N(C)C[C@H]1OCc2cnnn2CCCC(=O)N([C@H](C)CO)C[C@H]1C | 0% | 10%
COc1ccc2[nH]c3c(c2c1)CNCC3 | -1% | 1%
CCCS(=O)(=O)NC(=O)C1(C)CCN(C(=O)/C=C/c2ccccc2)C1 (stereo not given) | 0% | 1%
CCc1cc(-c2nnn(CCC3COCCO3)c2C(C)(C)O)ccc1-c1cn(CCc2c[nH]c3ccccc23)nn1 (stereo not given) | u | u
O=C(Nc1ccc2c(c1)OCCO2)C(C1CC1)n1c(=O)c(-c2ccccc2)nc2ccccc21 (stereo not given) | -12% | 11%
CC(C)n1nnnc1C1c2ccccc2C(=O)N1Cc1cccc(F)c1 (stereo not given) | -7% | -7%
Cc1nc2c(OCc3ccc(Cl)cc3Cl)cccn2c1N(C)Cc1cccs1 | u | u
O=C(COC(=O)c1cccc(F)c1)Nc1cccc(S(=O)(=O)N2CCOCC2)c1 | -10% | -2%
COc1ccncc1-c1ccccc1C1=CC(=O)CC(C)(C)C1=O | -14% | -6%
O=C1N[C@@H](Cc2ccccc2)C(=O)N2[C@H]3Nc4ccccc4[C@@]3([C@]34C[C@H]5C(=O)N[C@@H](Cc6ccccc6)C(=O)N5[C@H]3Nc3ccccc34)C[C@@H]12 | u | -3%

One compound at a time (already shown):
`COc1ccc(OC)c(C(O)c2ncc(-c3ccc(C(F)(F)F)cc3)[nH]2)c1` (stereo not given) across the screens: StopGo reporter = -4%; RE007 growth inh = 6%
`CC1=C(C(=O)N2CCOCC2)CC(CC(=O)NC(c2ccccc2)c2ccccc2)C(=O)N1CCCN1CCCC1=O` (stereo not given) across the screens: StopGo reporter = -4%; RE007 growth inh = -1%
`O=[N+]([O-])c1ccc(N2CCCC2)c([N+](=O)[O-])c1` across the screens: StopGo reporter = -16%; RE007 growth inh = -13%

Next records follow.
SMILES | StopGo reporter | RE007 growth inh
C[C@H]1CN([C@@H](C)CO)C(=O)c2cc(-c3cccnc3)cnc2O[C@H]1CN(C)Cc1ccc(Oc2ccccc2)cc1 | -25% | -17%
Cc1csc(-c2nc3ccccc3n2C(C(=O)NC(C)(C)C)c2ccccc2)c1 (stereo not given) | -23% | 6%
COC(=O)C1=C(c2ccc(OCc3ccccc3)cc2)C[C@@H]2CC[C@H]1N2C(=O)NCCCCc1ccccc1 | u | 2%
CC(C)(C)C(=O)N1CCC2CC1c1cc(-c3ccc4c(c3)OCO4)ccc12 (stereo not given) | -24% | 1%
COC(=O)[C@@]1(Sc2ccc(C)cc2)CC(=O)N(c2ccc(Cl)cc2)[C@@H]1c1ccccc1 | u | 4%
Cn1c(CCN2CCN(c3ccccn3)CC2)nc2cc(NS(=O)(=O)c3ccc(F)cc3)ccc21 | u | -22%
Cc1ccccc1C(=O)N1CCC[C@@H]1C(=O)N1CCC[C@H]1C(=O)NCc1ccncc1 | -16% | 47%
Clc1cccc(-c2nc3c4ccccc4ccn3c2Cc2ccccc2)c1 | 6% | -5%
CC(=O)Nc1ccc(NC(=O)C2Cc3c(-c4cccc(NC(C)=O)c4)ccnc3O2)cc1 (stereo not given) | -11% | 23%[18.4 µM]
OCC[C@@H]1C[C@H](O)[C@@H](O)[C@@]2(OCCCc3cc(C(F)(F)F)ccc32)O1 | -12% | 7%
CN1C=CC(=C[N+](=O)[O-])N(C)C1=O | -17% | 5%[18.4 µM]
O=C(c1ccc(Cl)cc1)C1CCN(C(=O)c2ccccc2F)CC1 | 0% | 7%
CCN(CC)C(=O)C1=C(C)N(Cc2ccc(C(C)(C)C)cc2)C(=O)C(CC(=O)NCC2CCCCC2)C1 (stereo not given) | 0% | 20%
CCN(CC(=O)Nc1c(F)cccc1F)C(=O)CSCc1ccc(C)cc1 | -13% | 8%

Retrieved by compound from the list above, three records:
SMILES | StopGo reporter | RE007 growth inh
O=C1C=CC(O)C2(CO)OC12 (stereo not given) | 28µM* | 9%
CN1C=CC(=C[N+](=O)[O-])N(C)C1=O | -17% | 5%[18.4 µM]
COc1ccc2oc3cc(Cl)ccc3c(=O)c2c1 | 61%[activator] | 1%

A portion of the library, so the mix of outcomes need not match the whole.
